BJeLR lethal – kills HRASV12-expressing BJeLR cells. BJeLR (HRASV12) viability, CellTiter-Glo ATP luminescence, 48 h; reference of the scale not given here. inhibition, % (test concentration not listed). 300,000 tested, 0.17% active;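 active = replicate mean above 50%; inconclusive = above 50% but judged a plate artefact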;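 note: 50 nL library stock added to about 25 µL; numbers are from one replicate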
PrP UTR inh – inhibition of PrP 5' UTR reporter expression; cell-based PrP 5' UTR mRNA reporter, plate reader; inhibition, % (no concentration beside the values); 340,000 tested, 0.35% active; AID 488862;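 active = every replicate at 50% or more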;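 note: 0 = median of the neutral control wells; tested in H4 reporter cells; numbers are from one replicate; inactives centre near -14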
Mtb hypoxia rep – Mtb hypoxia fluorescent reporter inhibition; 300,000 tested, 0.1% active; M. tuberculosis hypoxia-regulated fluorescent reporter, fluorescence; fluorescence inhibition, % (test concentration not listed);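 active = 35 to 45% if threefold the growth effect, above 45% if 1.5-fold the growth effect; inactive = the rest, general growth blockers included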;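 note: wells of about 50 µL received 100 nL stock; 0% = vehicle wells and 100% = reference inhibitor wells; whole bacteria with a GFP reporter of the hypoxia response; strong numbers were not always called active; many hits fall short of the cut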
RN4220 kill – S. aureus RN4220 growth inhibition | OD600, 16 h | inhibition, % (test concentration not listed) | 330,000 tested, 0.33% active | AID 1259311;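 active = z-score of -3 or lower and OD600 up to 0.18 on both plates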;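 note: plate controls were untreated cells for no effect and reference antibiotic for full effect; stock transfer was 100 nL into about 80 µL; one replicate is shown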
ugtP null kill – growth inhibition of S. aureus ugtP deletion strain; AID 1259309; growth inhibition, % (test concentration not listed); 330,000 tested, 0.54% active; S. aureus RN4220 ugtP deletion, OD600 growth, 16 h; some inactives read as strong as hits;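 active = z-score under -3 and OD600 up to 0.15 on both plates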;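 note: plate controls were untreated wells for no effect and antibiotic for full effect; wells of about 80 µL received 100 nL stock; the first replicate is given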
Bead autofluor – flagged as autofluorescent in microsphere protease counterscreen | compound autofluorescence counterscreen, microsphere flow cytometry; active compounds read high | fluorescence intensity (no concentration beside the values) | 360,000 tested, 3.1% active;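 active = at least 3 SD above the mean of all compounds, about 16000 in these data; inconclusive = too few beads counted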;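 note: 100 nL of 1 mM stock went into each well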
Mtb hypoxia rep growth – recorded beside Mtb hypoxia rep, whose call it bears; growth inhibition, %; measured here: M. tuberculosis growth (absorbance);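 0% = vehicle and 100% = reference antibiotic; read after six days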
Numbers without * were called inactive; ? = inconclusive; nt = not tested or not shown. Random draw from the library. About 4.1% of those tested had a hit in this group.

structure	BJeLR lethal	PrP UTR inh	Mtb hypoxia rep	Mtb hypoxia rep growth	RN4220 kill	ugtP null kill	Bead autofluor
O=C(C1=C[C@H](c2ccccc2)C[C@H](OCc2ccc(CO)cc2)O1)N1CCN(Cc2ccccc2)CC1	7	-14	nt	nt	nt	nt	4359
CC(=O)c1ccc(NC(=O)c2ccccc2Sc2ncnc3sc(C)c(C)c23)cc1	-3	-43	8	2	6.0	0	2380
CC1CC1C(=O)OCC(=O)Nc1ccc(S(=O)(=O)N2CCOCC2)cc1 (configuration not stated)	nt	-14	-4	5	1.3	3	8622
COc1ccc(CNC(=O)Cn2nc(-c3ccc4c(c3)OCCO4)ccc2=O)cc1	-3	-3	1	-4	2.0	4	7997
Cc1cc(=O)[nH]c(-c2cccnc2)n1	-6	-2	0	-5	10	9	3595
CCOC(=O)/C=c1\s/c(=C\c2ccc(C(F)(F)F)cc2)c(=O)n1CC(=O)NCc1ccco1	-5	-3	nt	nt	nt	nt	2615
O=C1N(Cc2ccccc2)c2ccccc2C12OCCO2	3	-13	2	6	-2.2	12	3580
CC1CCCN(Cc2c(O)ccc3c4c(c(=O)oc23)CCCC4)C1 (configuration not stated)	-4	-16	18	11	5.6	5	4637
COC(=O)C1=C(SC)N(c2ccccc2)C(c2ccccc2)CC1=O (configuration not stated)	2	-7	-1	4	4.0	13	2229
Cc1cc(C)n(CC(=O)N2CCCC(N3CCN(c4ccccc4C)CC3)C2)n1 (configuration not stated)	-1	-5	-6	-10	4.2	-1	3914
O=C(NCCO)C(=O)Nc1cc2c3c(c1)CC(=O)N3CCC2	-13	8	-6	-9	5.6	0	4122
O=C(CSc1ccccc1)NNC(=O)c1ccncc1	nt	-25	nt	nt	2.6	9	4428
Cc1ccc(/C(O)=C2/C(=O)C(=O)OC2c2ccc(Cl)cc2)cc1 (configuration not stated)	9	-31	14	14	5.0	4	9637
O=C1C(Cl)=C(Nc2ccc(F)cc2)C(=O)N1CCc1ccccc1	2	-10	11	9	-1.7	4	2737
O=C(/C=C\N1CCOCC1)c1ccc(Br)cc1	10	-25	3	3	2.1	7	3365
COc1ccc(OC)c(N(CC(=O)N2CCN(Cc3ccccc3)CC2)S(C)(=O)=O)c1	7	37	-2	1	-1.2	-2	2989
Cc1ccc(-c2cnn(-c3cccc([N+](=O)[O-])c3)c2N)cc1	2	-58	2	2	7.8	-4	23689*
CCOc1ccc(OCCOC(=O)CN(C)S(=O)(=O)c2ccc(NC(C)=O)cc2)cc1	-5	-33	7	0	3.0	2	5175
COc1ccc(C(=NNc2ccccc2C(=O)O)c2ccccc2)cc1	nt	nt	3	14	14	-12	nt
O=C(O)c1ccccc1NC(=O)N1CCOCC1	0	-18	3	11	2.2	2	2578

structure	BJeLR lethal	PrP UTR inh	Mtb hypoxia rep	Mtb hypoxia rep growth	RN4220 kill	ugtP null kill	Bead autofluor
COc1ccc(-n2c(COc3cccc4ccccc34)nnc2SCC#N)cc1	8	-2	nt	nt	9.7	-14	4275
O=C(C1=C(O)C(=O)N(c2ncccn2)C1c1cccs1)c1ccco1 (configuration not stated)	-7	-38	-6	2	1.3	-4	12833
CN(C)S(=O)(=O)c1ccc(C(=O)OCC(=O)Nc2cccnc2Cl)cc1	0	-1	5	-2	7.1	6	3121
Cc1ccc(NC(=O)NN2CCOCC2)cc1	1	-8	11	6	5.4	10	4997
CCC1(c2ccccc2)NC(=O)N(CC(=O)Nc2ccc(S(=O)(=O)Nc3ncccn3)cc2)C1=O (configuration not stated)	-5	-32	6	3	2.6	12	5883
COc1cc(OC)cc(C(=O)NC(C(=O)NNC(=O)c2cc(Cl)ccc2OC)C(C)C)c1 (configuration not stated)	nt	-27	1	4	6.3	-2	?
CCN(CC)c1ccc(NC(=O)c2ccc(=O)[nH]c2)cc1S(=O)(=O)Nc1ccccc1OC	5	-8	-4	4	1.3	-13	4137
CCC1Sc2ccc(S(=O)(=O)CCC(=O)Nc3cccc(Br)c3)cc2NC1=O (configuration not stated)	-11	-17	11	-4	4.7	-4	6301
CCOc1ccc(CCNC(=O)c2ccc3ccccc3n2)cc1OCC	-8	-12	13	18	0.7	5	8080
O=C(Nc1c2c(nn1-c1ccc(F)cc1)CSC2)c1ccc(S(=O)(=O)N2CCOCC2)cc1	1	-1	6	5	13	0	15969
CN(C)c1nc(N(C)C)c2cnn(C)c2n1	nt	-12	12	8	6.3	-4	3656
CC(/C=C1\SC(=S)N(CC(=O)O)C1=O)=C\c1ccccc1	7	-19	7	2	-0.6	9	nt
Cc1ccc(OCCCCn2cnc3ccccc32)c(C)c1	nt	-15	8	15	3.5	-5	?
COc1ccc(N(CC(=O)N2CCN(C)CC2)S(=O)(=O)c2ccccc2)cc1	-10	-16	10	4	2.3	2	3575
O=C(CN1CCC(NC(=O)c2ccccc2Cl)CC1)NCc1ccccc1	11	-32	12	15	3.2	9	3720
O=C(NC12CC3CC(CC(C3)C1)C2)c1cnccn1	1	0	23	15	6.3	-5	3936
O=CN1CCN(C(=O)c2ccccc2F)CC1	3	-39	6	5	5.1	-2	3092
CC(C)CCNC(=O)C(=O)Nc1cc2c3c(c1)CCC(=O)N3CCC2	-2	-11	14	7	4.7	4	6124
COc1ccc(Nc2nnc(SCc3cn4c(C)cccc4n3)s2)cc1	-14	-6	7	8	2.9	-7	8440
Cc1cc(C(=O)NN=Cc2ccc([N+](=O)[O-])o2)c(C)o1	nt	nt	nt	nt	31	27	nt

structure	BJeLR lethal	PrP UTR inh	Mtb hypoxia rep	Mtb hypoxia rep growth	RN4220 kill	ugtP null kill	Bead autofluor
O=C(CN1CCN(S(=O)(=O)c2cccc(F)c2)CC1)NCC1(N2CCOCC2)CCCCC1	nt	-5	2	-3	0.8	5	3096
CCc1nc2n[nH]c(N)c2c2c1CCCC2	-6	-1	nt	nt	-4.5	-11	3651
CCOc1ccc(N(CC(=O)NCc2ccc(Cl)cc2)S(=O)(=O)c2ccccc2)cc1	-4	-29	12	-9	-1.5	6	3580
CCC(=O)c1ccc(N2CCCCCC2)c(F)c1	-3	-32	5	8	16	10	3071
COc1ccccc1N1CCN(Cc2ccc(C(=O)O)cc2)CC1	6	-20	-3	6	3.3	7	4145
Cc1nn(C)c(C)c1S(=O)(=O)N(CC(=O)Nc1ccccn1)c1ccc(C(C)C)cc1	2	-18	9	-1	5.7	16	6057
O=C(CSc1nc2nn(-c3ccccc3)c(=O)c-2c2n1CCCCC2)Nc1ccc(F)c(F)c1	nt	-2	1	9	-0.7	-25	3901
CCCN(CCC)C(=S)NC(=O)c1ccc(Cl)cc1Cl	-1	-12	6	15	1.4	9	21981*
CCOc1ccc(CN2CCN(S(=O)(=O)c3ccc(NC(C)=O)cc3)CC2)cc1	-1	-20	6	7	-0.5	9	5462
OC(CC#CCN1CCCCCC1)(c1ccccc1)C1CCCC1 (configuration not stated)	4	-13	-1	-1	2.7	-7	3537
c1ccc2nc(-c3ccc(-n4ccnc4)cc3)ccc2c1	-20	-34	-11	-15	2.0	1	3433
N=c1oc2ccccc2cc1C(=O)NC1CCCCCC1	-9	-59	6	10	6.8	-5	5640
Cc1noc(-c2ccccc2OC(=O)c2ccccc2)n1	-5	2	nt	nt	2.7	5	4956
Fc1ccc(Sc2nc(-c3ccccc3)nnc2C(F)(F)F)cc1	-10	-10	nt	nt	11	17	4367
COc1ccc(/C=C(/NC(=O)c2ccccc2)C(=O)N/N=C/c2cccs2)cc1OC	1	-26	nt	nt	nt	nt	6529
O=C(NCc1cccnc1)c1cnn2ccccc12	4	5	0	8	-0.4	8	6115
COc1nc(Cl)cn(-c2ccc(Cl)cc2)c1=O	-11	-31	4	-1	6.9	7	2517
CCN(CC)S(=O)(=O)c1ccc(N/N=C(\C)c2ccncc2)c([N+](=O)[O-])c1	1	-18	nt	nt	nt	nt	3794
CC1(C)Cc2c(C#N)c(N3CCOCC3)nc(-c3ccccc3)c2CO1	2	-10	nt	nt	1.8	-2	2493
CC1(c2ccc(Cl)cc2)NC(=S)N2C1NC(=S)N2c1ccccc1 (configuration not stated)	0	-37	-2	2	-0.3	10	5107

structure	BJeLR lethal	PrP UTR inh	Mtb hypoxia rep	Mtb hypoxia rep growth	RN4220 kill	ugtP null kill	Bead autofluor
Cn1c(SCC(=O)NC2CCCC2)nnc1-c1ccccn1	8	-22	1	-6	1.3	1	4216
O=C(CN1CCN(c2ccccn2)CC1)N(c1ccccc1)c1ccc2ccccc2c1	nt	-7	nt	nt	0.5	0	5004
O=C(NNC(=O)c1ccccc1)C(=O)N1CCCCC1	1	-15	14	5	5.7	6	4140
COc1ccc(NC(=O)Cn2nnc(C(=O)NCc3ccccc3)c2N)c(OC)c1	5	-14	-4	10	-0.8	5	2612
CCN1CCN(c2ccc(S(=O)(=O)N3CCOCC3)cc2NC(=O)c2ccc(C(F)(F)F)cc2)CC1	2	-21	8	3	1.9	2	4196
C[C@H](NC(=O)[C@@H]1Cc2ccccc2CN1)C(=O)Nc1ccc2c(c1)OCO2	8	-36	-1	3	1.2	4	4888
O=C(CCCN1C(=O)/C(=C\c2cccs2)SC1=S)Nc1ccc(O)cc1C(=O)O	-11	-24	-4	-1	6.8	4	5094
O=C(CSc1ccc2nnc(-c3ccc(F)cc3)n2n1)N1CCCc2ccccc21	-4	-6	0	5	17	-4	2481
COC(=O)C[C@H]1c2cc(F)ccc2S(=O)(=O)N1Cc1ccccc1OC	1	-7	nt	nt	nt	nt	4015
O=c1oc(-c2ccc(F)cc2)nc2ccsc12	12	-9	13	3	3.3	2	nt
O=C1CCC(c2ccc3c(c2)CCC3)=NN1	-13	7	8	4	5.1	8	3795
CC(=O)Nc1ccc(NC(=O)c2cccc(S(=O)(=O)N3CCCCCC3)c2)cc1	nt	-9	12	13	2.7	0	3966
O=S(=O)(c1cccs1)N1CCN(Cc2ccccc2)CC1	4	-18	3	2	5.0	12	13528
Cc1ccc(C(=O)CC(=O)COc2ccc(Cl)cc2C)cc1	-1	-16	-1	0	2.9	-5	2524
Cc1cc(N/N=C/c2ccco2)c2ccccc2n1	-11	-22	nt	nt	nt	nt	2494
COc1cccc(NC(=O)CN(C)C(=O)c2cccc(S(=O)(=O)N3CCN(c4ccc(F)cc4)CC3)c2)c1	0	-88	5	6	1.6	5	6744
COc1ccc(C2CC(c3ccc(Cl)cc3)Nc3nc(NC(=O)c4ccco4)nn32)cc1 (configuration not stated)	-4	6	nt	nt	2.3	-9	2483
Cc1ccc(C2=NNC(C(O)C(O)C(O)CO)S2)cc1 (configuration not stated)	3	-6	nt	nt	nt	nt	4557
CN(Cc1ccc(F)cc1)C(=O)c1ccc(NS(=O)(=O)c2ccc3[nH]c(=O)[nH]c3c2)cc1	3	-2	-6	1	0.1	2	?

Screens deposited in PubChem by several laboratories.
